# Tg IFNy HTS = T. gondii growth inhibition under IFN-gamma | Toxoplasma gondii growth in IFN-gamma-treated host cells; active compounds read low; reference of the scale not given here | activity change, negative = inhibition, %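 (about 20 µM by stock and volumes)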 | 69,000 tested, 3.8% active;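 active = below -70%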;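 also: host cells are HeLa cells infected with Toxoplasma gondii; parasite growth read as luciferase light; one replicate is shown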
# Starred values were filed as active, the others as inactive; i = inactive; & = joins results of further samples; ! = repeats disagree. These rows are one share of the data, so the mix of outcomes need not match the whole.
SMILES,Tg IFNy HTS
Cn1nc(CN2CCCCC2)c2c1CN(C(=O)c1ccc(Cl)cc1)C2,14
CCCCC[C@H](O)/C=C/[C@@H]1[C@@H](C/C=C\CCCC(=O)O)[C@H]2CO[C@@H]1C2,7
CN1CCCN(CC(=O)N(C/C=C/c2ccccc2)C2CC2)CC1,1
CC(=O)Nc1ccc2c(c1)CCc1ccccc1-2,24
COc1ccc(-c2nc(C)c(CCNS(=O)(=O)c3ccc(Oc4ccccc4)cc3)s2)cc1OC,-97*
Cc1nc(COCC2CN(CCN(C)C)Cc3ncn(C)c32)cs1 (stereo not drawn),-1
Cc1ccc2c(c1C)-n1cccc1C1(CCN(S(=O)(=O)c3ccc(F)c(F)c3)CC1)N2,10
COc1ccc(S(=O)(=O)Nc2ccc3c(c2)C(=O)N([C@@H](C)CO)C[C@H](C)[C@@H](CN(C)C(=O)Nc2c(C)noc2C)OCCCC[C@@H](C)O3)cc1,91
CCC1=N[C@@]2(CC[C@H]3CN(CC4CC4)C[C@H]32)C(=O)N1,25
CCCCc1ncc(-c2nccn2CCc2ccccn2)[nH]1,-58
CCc1nnc(NC(=O)C2CCN(S(=O)(=O)c3ccc(C)cc3)CC2)s1,-38
Cc1nn(C)cc1C(=O)N1CCCC1(C)C(=O)NC1CCCC1 (stereo not drawn),8
CNC(=O)CN1C(=O)CCC12CCCN(C(=O)C1CCCO1)C2 (stereo not drawn),-9
CCC1SC(=NC(=O)C(Cc2ccccc2)N2C(=O)c3ccccc3C2=O)NC1=O (stereo not drawn),-7
Cc1nc(NCc2ccco2)nc2c1COCC21CCN(C(=O)CC(C)(C)C)C1 (stereo not drawn),3

# A draw from above in order of molecular weight, smallest number first.
SMILES,Tg IFNy HTS
CC(=O)Nc1ccc2c(c1)CCc1ccccc1-2,24
CCC1=N[C@@]2(CC[C@H]3CN(CC4CC4)C[C@H]32)C(=O)N1,25
CCCCc1ncc(-c2nccn2CCc2ccccn2)[nH]1,-58
Cc1nn(C)cc1C(=O)N1CCCC1(C)C(=O)NC1CCCC1 (stereo not drawn),8
CNC(=O)CN1C(=O)CCC12CCCN(C(=O)C1CCCO1)C2 (stereo not drawn),-9
CN1CCCN(CC(=O)N(C/C=C/c2ccccc2)C2CC2)CC1,1
Cc1nc(COCC2CN(CCN(C)C)Cc3ncn(C)c32)cs1 (stereo not drawn),-1
Cn1nc(CN2CCCCC2)c2c1CN(C(=O)c1ccc(Cl)cc1)C2,14
CCc1nnc(NC(=O)C2CCN(S(=O)(=O)c3ccc(C)cc3)CC2)s1,-38
Cc1nc(NCc2ccco2)nc2c1COCC21CCN(C(=O)CC(C)(C)C)C1 (stereo not drawn),3
CCC1SC(=NC(=O)C(Cc2ccccc2)N2C(=O)c3ccccc3C2=O)NC1=O (stereo not drawn),-7
Cc1ccc2c(c1C)-n1cccc1C1(CCN(S(=O)(=O)c3ccc(F)c(F)c3)CC1)N2,10
COc1ccc(-c2nc(C)c(CCNS(=O)(=O)c3ccc(Oc4ccccc4)cc3)s2)cc1OC,-97*
COc1ccc(S(=O)(=O)Nc2ccc3c(c2)C(=O)N([C@@H](C)CO)C[C@H](C)[C@@H](CN(C)C(=O)Nc2c(C)noc2C)OCCCC[C@@H](C)O3)cc1,91

# (next part)
SMILES,Tg IFNy HTS
Cc1ncc(C)c(NCc2cccnc2Oc2ccc(C)c(F)c2F)n1,-48
CCOc1ccc(-c2nc(Cn3nnc(C(=O)Nc4ccc(Br)c(C)c4)c3C)c(C)o2)cc1,243
CCOC(=O)N1CCN(C(=O)c2ccc(N3CCC(NCc4cccs4)CC3)cc2)CC1,-2
COc1ccccc1Cc1cc(C2CCNCC2)nc(C)n1,23
O=C(C[C@H]1CC[C@@H](NC(=O)c2ccc(F)cc2)[C@H](CO)O1)NCCc1ccccc1,-29
Cc1cnc(N2CCC3(CC(Nc4ncccc4F)CO3)C2)nc1 (stereo not drawn),-3
Cc1ccc(Nc2ncnc3c2cnn3-c2ccc(C)cc2C)cc1,0
Cc1ccc(-c2nc(C)c(CCNC(=O)c3ccco3)s2)cc1,i
COCC(=O)N1CC2(CCN(Cc3ccccc3)CC2)c2c([nH]c3cc(OC)ccc23)[C@@H]1CO,233
O=C(CCN1CCN(c2nsc3ccccc23)CC1)Nc1cccnc1,19
Cc1c(Cl)cccc1NC(=O)Cn1c(=O)cc(-c2nc(C(C)C)no2)c2ccccc21,8
CN(C(=O)c1ccc(Br)o1)C1CCS(=O)(=O)C1 (stereo not drawn),1
CC1=CC[C@@H]2CN(Cc3ccccc3OCC(=O)N(C)C)C[C@@H]2C1,-6
CCCCCc1nnc(NC(=O)C2CC(=O)N(CCc3c[nH]c4ccc(C)cc34)C2)s1 (stereo not drawn),-54
CNC(=O)C[C@@H]1CC[C@@H]2[C@@H](COc3ccc(NS(=O)(=O)c4ccc(F)cc4)cc3C(=O)N2C)O1,16
O=C1CCC2(CCCO2)CCN1Cc1nccn1Cc1ccccc1 (stereo not drawn),53
CCOC(=O)c1nc(Nc2cc(F)ccc2F)c2ccccc2n1,15
C[C@H]1CCCCO[C@H](CN(C)C(=O)Nc2ccc3c(c2)OCO3)[C@@H](C)CN([C@@H](C)CO)C(=O)c2cc(NS(=O)(=O)c3ccc(F)cc3)ccc2O1,117
CCNc1ccnc(N2CCC3(CCCN(C)C3=O)C2)n1 (stereo not drawn),-10
CCOC(=O)Cn1nc(NC(=O)c2ccc(Cl)c(Cl)c2)cc1C,0
CCC(c1ccc(F)cc1)n1cc(C(=O)NC(c2ccncc2)c2cccs2)nn1 (stereo not drawn),12
CCn1cc2c(n1)CN(C(=O)CS(C)(=O)=O)CC2COC (stereo not drawn),-2
Cc1cnc(N2CCC3(CCCN(c4nncs4)C3)C2)nc1 (stereo not drawn),0
COc1cccc(S(=O)(=O)N(C)C[C@@H]2OCc3ccccc3-c3c(n(C)c4ccccc34)C(=O)N([C@@H](C)CO)C[C@H]2C)c1,-27
COCCNC(=O)C1CCCN(C2CCN(C(=O)c3cccs3)CC2)C1 (stereo not drawn),-4
Cc1ccc(CSC2=Nc3ccccc3C3=NC(CC(=O)NCc4cccs4)C(=O)N23)cc1 (stereo not drawn),-33
COc1ccc(C2(C#N)CCC(C(=O)O)CC2)cc1OC1CCCC1 (stereo not drawn),23
Cc1cccc(C(=O)Nc2c(C(=O)NCc3cccnc3)[nH]c3ccccc23)c1,-35
CCCS(=O)(=O)Nc1ccc(F)c(C(=O)c2c[nH]c3ncc(Cl)cc23)c1F,-51
CCc1nc(OCC(=O)Nc2ccc(Cl)cc2F)c2ccccc2n1,-34
Nc1ccc(C(=O)CN2C(=O)CSC2=O)cc1,-18
O=C(Cn1ncc2c(N3CCN(c4ccccn4)CC3)ncnc21)NCCC1=CCCCC1,205
CCOC(=O)c1nc(N2CCN(c3ccccc3)CC2)c2ccccc2n1,48
CC(C)(Cc1ccc(F)cc1)NC(=O)CC1C(=O)NCCN1Cc1ccoc1 (stereo not drawn),5
O=C(C[C@@H]1C=C[C@@H](NC(=O)Cc2ccccn2)[C@H](CO)O1)NCCc1ccncc1,17
N#Cc1cccc(-c2ccc(C3[C@@H]4CN(C(=O)c5ccc6c(c5)OCO6)C[C@H]3N4)cc2)c1 (stereo partly drawn),-75*!
Cc1cccc(C(=O)N2CCc3c([nH]c4ccccc34)C2c2cccnc2)c1 (stereo not drawn),-109*
CCOC(=O)c1cc2c(=O)[nH]ccc2nc1C(F)(F)F,64
CCOc1ccc(NC(=O)Cn2c(=O)cc(C(=O)N3CCc4ccccc4C3)c3ccccc32)cc1,-11
CCCn1c(=O)c2[nH]c(-c3ccccc3)nc2n(CCC)c1=O,2&0
CC(=O)Nc1ccc(S(=O)(=O)Oc2ccc3c(c2)C(C)=CC(C)(C)N3)cc1,-8
O=C(CNCc1ccc(F)cc1)Nc1ccccc1N1CCOCC1,20
Fc1ccccc1CSC1=NCCN1,-5
COc1ccccc1NC(=O)C(=O)NCCc1csc(-c2ccc(Cl)cc2)n1,28
CCn1c(CNC(=O)C2CCC2)nc2c1CN(C(=O)c1ccc(OC)cc1)CC2,22
COc1ccc(S(=O)(=O)N(C)C[C@@H]2Oc3ccc(NC(=O)Cc4cn(C)c5ccccc45)cc3C(=O)N([C@@H](C)CO)C[C@H]2C)cc1,-2
CCc1cnc(N2[C@H](CO)[C@@H](c3ccccc3-c3ccccc3C)[C@@H]2C#N)s1,24
Cc1csc2sc(C(=O)Nc3ccc(Cl)cc3)c(C)c12,42
Cc1cc(=O)c2c(O)c(O)ccc2o1,24
CC(C)CC(NS(=O)(=O)c1ccc2[nH]c(=O)ccc2c1)C(=O)NC1CCCCCCC1 (stereo not drawn),-10
COC(=O)c1coc(CN2CCOC(c3ccc4cc(OC)ccc4c3)C2)n1 (stereo not drawn),-4
O=C(Cc1ccc2c(c1)OCO2)N1CCc2c(cc(-c3ccccc3F)c(=O)n2Cc2ccncc2)C1,21
O=C(O)Cc1cncc(Br)c1,-24
CC(C)C1C(=O)N(C)CCN1Cc1ccc(C(=O)Nc2cnn(C)c2)cc1 (stereo not drawn),5
O=C(C1CCCCC1)N1CC2(C1)[C@@H](c1ccccc1)[C@@H](CO)N2C(=O)c1cccnc1,-59
Cc1ccc(C)c(NC(=O)NCC(c2cccnc2)c2cn(C)c3ccccc23)c1 (stereo not drawn),i
Cc1ccc(-c2cc(O)c3c(c2)CN(C(=O)CCCn2cncn2)CCO3)cc1,-76*
CC(C)C(=O)C1CC2CN(Cc3cnn(C)c3)CC1O2 (stereo not drawn),2
Cc1ccc2c(c1)NC1(CCN(C(=O)Nc3ccc(Br)c(C)c3)CC1)c1cccn1-2,110
CC(C)N1CC(C(=O)O)CN2CCN(Cc3nccs3)CC2C1 (stereo not drawn),6

# Part of the list above in a different format.
Molecule	Tg IFNy HTS
CC(C)C(=O)C1CC2CN(Cc3cnn(C)c3)CC1O2 (stereo not drawn)	2
Cc1ccc2c(c1)NC1(CCN(C(=O)Nc3ccc(Br)c(C)c3)CC1)c1cccn1-2	110

# (list continues)
SMILES,Tg IFNy HTS
CC(C)Cc1ncc2c(n1)CN(C(=O)c1cc(C(C)C)on1)C2,-13
COc1ccccc1NC(=O)N1CC(=O)N2[C@H](CO)[C@@H](c3ccc(C#CC(C)C)cc3)[C@H]2C1,23
COc1ccccc1CNC(=O)C[C@@H]1CC[C@@H]2[C@H](COC[C@@H](O)CN2Cc2ccc3c(c2)OCO3)O1,-24
C[C@@H]1CN([C@H](C)CO)C(=O)Cc2cc(NS(=O)(=O)c3cn(C)cn3)ccc2O[C@H]1CN(C)Cc1ccc2c(c1)OCO2,11
Cc1ccc(CN2CCN(CCCc3ccccc3)CC2CCO)cc1 (stereo not drawn),6
CC(C)Cc1nc(C(C)NS(C)(=O)=O)n(-c2ccc3c(c2)OCCO3)n1 (stereo not drawn),-22
CN(CCOc1ccccc1)Cc1ccc(O)c(O)c1,5
COc1ccc2c3c(n(C)c2c1)[C@@H](CO)N(Cc1ccc(Cl)cc1)CC31CCN(CC2CC2)CC1,288
Fc1ccc(C2Nc3ccc4ccccc4c3C3=C2CCCC3)cc1 (stereo not drawn),-105*
CCC(=O)N1C[C@H](O)COC[C@@H]2O[C@H](CC(=O)NC)CC[C@H]21,-6
COCC1CN(Cc2cnn(C)c2)Cc2nccn2C1 (stereo not drawn),-17
Cc1cnc(N2CCC3(CC2)CN(Cc2csc(C)n2)CCO3)nc1,-60
COc1ccccc1C1SCCN1S(=O)(=O)c1ccc(NC(C)=O)cc1 (stereo not drawn),16
Cc1noc(C)c1S(=O)(=O)N(C)C[C@@H]1OCc2ccccc2-c2ccccc2C(=O)N([C@H](C)CO)C[C@H]1C,-10
COCc1ccc(CN2CCc3c([nH]c4ccccc34)C2C(C)(C)C)o1 (stereo not drawn),16
CCS(=O)(=O)N1CCC2(CCC2NS(=O)(=O)c2ccccc2)CC1 (stereo not drawn),-5
CCN1c2cc(C)ccc2-n2cccc2C12CCN(C(=O)Nc1cccc(F)c1)CC2,-85*
O=C(O)CC1(CC(=O)Nc2ccc(N3CCCCC3)cc2)CCCCC1,97
CCOc1ccc(-c2nc(CN3C(=O)C(O)(c4ccccc4)c4ccccc43)c(C)o2)cc1 (stereo not drawn),9
O=[N+]([O-])c1nccn1CC(O)CN1CCCCC1 (stereo not drawn),2
Nc1nc(C2CC(=O)OC23CCCCC3)cs1 (stereo not drawn),12
CC(C)N1CCNC(=O)C1CC(=O)NCc1cn[nH]c1-c1cccs1 (stereo not drawn),-5
O=C(O)c1cc(N2C(=O)C3C4C=CC(C4)C3C2=O)ccc1NCc1cccnc1 (stereo not drawn),0
CCCn1ccnc1CN1CCC(c2ccnc(-c3ccncc3)c2)C1 (stereo not drawn),4
COCCN1C(=O)N(Cc2ccccc2)C2(CCN(Cc3cccn3-c3nccs3)CC2)C1=O,13
CCOC(=O)C1CCCCN1C(=O)c1cn(C)c2ccc(C)cc2c1=O (stereo not drawn),1
O=S(=O)(c1cccc(C(F)(F)F)c1)N1CCC(N2CCOCC2)CC1,18
COc1ccc(N(Cc2nc(-c3cccc(C)c3)oc2C)S(=O)(=O)c2cccs2)cc1,-38
O=C(O)C1CC(N2CCOCC2)CCN1C(=O)c1cccs1 (stereo not drawn),7
CCCC(=O)N1CCC2(CC1)CN(C(=O)C1CCC1)[C@@H](CO)c1[nH]c3cc(OC)ccc3c12,-35
CCc1nc(OCC(=O)Nc2ccc(Cl)c(C(F)(F)F)c2)c2ccccc2n1,-14
COc1ccc([C@@H]2C/C=C\C[C@H](c3ccc4c(c3)OCO4)NC(=O)[C@H](c3ccccc3)CC(=O)N2)c(OC)c1,21
CCCCCCC(=O)OC1CC(C)(C)NC(C)(C)C1,3&20
CCOC(=O)N1CCC(N2CC34C=C[C@@H](O3)[C@H](C(=O)Nc3ccc(C)cc3)[C@@H]4C2=O)CC1,-34
CC(C)OCC12CCCOC1CCN(C(=O)c1cccn1C)C2 (stereo not drawn),-47
CN1CC2(CCCN(C(=O)c3ccccc3-c3ncc[nH]3)CC2)OC1=O (stereo not drawn),-3
Cc1cccnc1CN(Cc1ccccc1)C(=O)Cn1cc(C(C)C)nn1,-14
CCn1nc(C)c(CNC2CCc3ccc(OC)cc3C2)c1C (stereo not drawn),14
